Bioassay records: PubChem BioAssay, National Center for Advancing Translational Sciences (NCATS)
Rango dissoc inh: prevents RanGTP from dissociating the Rango-importin beta complex | hit rate 0.071% among 340,000 | Biochemical FRET Rango-importin beta, RanGTP-induced dissociation | Potency, µM (top dose mostly 46.1 µM), without a hit: at the top dose activity change, negative = inhibition; active means falling FRET ratio curve, often poorly fitted, with flat reads before Ran was added; inconclusive means other falling curves, or compound fluorescence or quenching; inactive means flat or rising ratio curve;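 also: potency is read from the fitted curve at half-maximal effect; % of control where 0% means no effect; nearly all actives have a fitted effect of over 45% in size; -100% = wells without RanGTP and RCC1; the record marks most hits as doubtful in a second field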
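Compounds preincubate 5 min with complex of recombinant Rango and importin beta in PBS with 1 mM DTT. Ran (0.6 uM) loaded with 2 mM GTP plus 0.2 uM RCC1 starts dissociation; FRET is recorded 45 min later.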
miR-21 reporter: raises the signal of a miR-21 reporter; 340,000 tested, under 10 active; AID 2288; Potency, µM (highest dose often 38.3 µM), without a hit: top-dose reporter change, positive = more light; HeLa miR-21 FLuc reporter, luciferase, 48 h; active = well fitted rising curve with a large enough effect; inconclusive = small, poorly fitted or top-dose-only effect; inactive = no such curve, though single readings can be large or run the other way;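 also: % of control where 0% means no effect; miR-21 action dims this reporter so a rising signal means less miR-21 action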
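Luminescence from a firefly luciferase reporter carrying a miR-21 binding site downstream, stably expressed under a CMV promoter in HeLa cells that make miR-21 endogenously, reports miRNA modulation after 48 h compound exposure up to approximately 40uM final.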
GLA inh pH 4.5: blocks human alpha-galactosidase A at pH 4.5 | P06280 | purified enzyme, 4-MU-alpha-Gal fluorescence, pH 4.5 | activity change, negative = inhibition, % at 105 µM | 230,000 tested, under 10 active; inconclusive = small, poorly fitted or top-dose-only inhibition, or a rising curve; inactive = flat fitted curve, though single readings scatter; no compound was filed as active;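 also: 0% = full activity with enzyme and -100% = basal without enzyme; dose as in the result columns while the protocol names 77 µM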
Rango-impB inh: inhibitors of Rango-importin beta complex formation. Rango CFP/YFP FRET sensor + importin beta, 45 min. Potency, µM (series often up to 92.2 µM), for inactives: top-dose inhibition of complex formation. hit rate 0.031% among 340,000. AID 540263; active = rising FRET ratio curve, often small or poorly fitted; inconclusive = mostly compound fluorescence or quenching in the first reads; inactive = flat curves in all reads;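 also: potency is read from the fitted curve at half-maximal effect; 0% = DMSO wells and 100% = buffer wells lacking importin beta; nearly all actives have a fitted effect of over 15% in size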
Target sequence (Q14974 whole entry, looked up): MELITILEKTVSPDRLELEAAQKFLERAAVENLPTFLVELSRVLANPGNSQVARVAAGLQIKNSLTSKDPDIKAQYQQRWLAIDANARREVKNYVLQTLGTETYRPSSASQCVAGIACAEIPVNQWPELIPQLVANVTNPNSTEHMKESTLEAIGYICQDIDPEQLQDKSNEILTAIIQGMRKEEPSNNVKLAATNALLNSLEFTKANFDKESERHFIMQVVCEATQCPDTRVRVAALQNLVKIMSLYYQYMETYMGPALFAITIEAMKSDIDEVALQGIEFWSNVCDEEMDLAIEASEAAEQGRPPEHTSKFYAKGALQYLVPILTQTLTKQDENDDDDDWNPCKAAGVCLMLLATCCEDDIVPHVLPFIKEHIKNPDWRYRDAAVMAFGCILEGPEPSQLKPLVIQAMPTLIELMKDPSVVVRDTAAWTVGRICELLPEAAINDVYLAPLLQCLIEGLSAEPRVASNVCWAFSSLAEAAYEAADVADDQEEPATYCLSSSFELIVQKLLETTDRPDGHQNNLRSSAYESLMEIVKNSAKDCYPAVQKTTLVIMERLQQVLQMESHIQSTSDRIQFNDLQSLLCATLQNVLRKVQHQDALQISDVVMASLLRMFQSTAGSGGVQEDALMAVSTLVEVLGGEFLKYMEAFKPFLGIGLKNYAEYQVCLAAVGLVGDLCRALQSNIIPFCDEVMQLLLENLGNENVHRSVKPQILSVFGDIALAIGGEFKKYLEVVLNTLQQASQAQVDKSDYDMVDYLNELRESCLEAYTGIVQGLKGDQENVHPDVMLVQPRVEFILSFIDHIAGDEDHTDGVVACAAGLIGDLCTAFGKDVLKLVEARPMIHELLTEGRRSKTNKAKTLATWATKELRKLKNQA
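Inhibition scored from the CFP 486 nm/YFP 530 nm FRET ratio 45 min after adding 0.125 microM importin beta to 50 nM Rango biosensor preincubated 5 min with compound (room temperature, PBS with DTT, Tween-20, BSA). No-importin wells as positive control.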
The depositor's hits bear a star; & = joins results of further samples.

What do the screens show for `CNCc1c(OCc2ccc(F)cc2)ccc2ccccc12`?
Rango dissoc inh: 12%; miR-21 reporter: 12%; GLA inh pH 4.5: -1; Rango-impB inh: -1.3%

What do the screens show for `CSc1ncccc1C(=O)OCC(=O)NCc1ccc2c(c1)OCO2`?
Rango dissoc inh: 12%; miR-21 reporter: -2%; GLA inh pH 4.5: 3; Rango-impB inh: 3.2%

How did Cc1ccc(-c2nc(SCC(=O)NCC3CCCO3)c(-c3ccc(C)cc3)[nH]2)cc1 (stereo not given) do in these assays?
Rango dissoc inh: -19%; miR-21 reporter: -2%&-7%; GLA inh pH 4.5: 8; Rango-impB inh: 2.0%

How did Cc1ccc(C(=O)NC(=S)Nn2cnnc2)cc1 do in these assays?
Rango dissoc inh: -15%; miR-21 reporter: -33%; GLA inh pH 4.5: 6; Rango-impB inh: -0.5%

How did COc1cccc(N2CCN(C(=O)CCc3nnc4ccc(N5CCOCC5)nn34)CC2)c1 do in these assays?
Rango dissoc inh: 21%; miR-21 reporter: -3%; Rango-impB inh: -1.2%

What do the screens show for `Cc1ccc(C(C(=O)NCc2ccco2)N(C(=O)CNC(=O)c2cccs2)c2ccc(C)cc2C)cc1` (stereo not given)?
Rango dissoc inh: 28%; miR-21 reporter: -2%; GLA inh pH 4.5: 1; Rango-impB inh: 5.4%

How did CCCCNC(=S)Nc1ccc(Oc2ccccc2)cc1 do in these assays?
Rango dissoc inh: 0%; miR-21 reporter: -8%; GLA inh pH 4.5: -4; Rango-impB inh: 0.7%

What do the screens show for `CC(C)(C)NC(=S)Nc1cccc(C(F)(F)F)c1`?
Rango dissoc inh: -5%; miR-21 reporter: 20%; GLA inh pH 4.5: 1; Rango-impB inh: -2.1%

Results for CCOC(=O)C1=C(C)OC(N)=C(C#N)C1c1ccc(OC)c(C)c1OC (stereo not given) ?
Rango dissoc inh: -2%; miR-21 reporter: -7%; GLA inh pH 4.5: 0; Rango-impB inh: 0.2%

How did O=C(c1nn2c(C(F)(F)F)cc(-c3cccs3)nc2c1Cl)N1CCCc2ccccc21 do in these assays?
Rango dissoc inh: inconclusive; miR-21 reporter: -26%; GLA inh pH 4.5: -3; Rango-impB inh: inconclusive

How did CN(CC(=O)Nc1ccc(F)cc1)C(=O)COC(=O)c1cc(Br)c(Br)s1 do in these assays?
Rango dissoc inh: 6%; Rango-impB inh: -0.9%

How did COc1ccc(CCNC(=S)Nc2cccc(C)c2C)cc1 do in these assays?
Rango dissoc inh: 9%; miR-21 reporter: -4%; GLA inh pH 4.5: 5; Rango-impB inh: 2.3%

What do the screens show for `Cc1cc(Cl)ccc1OCC(=O)N(Cc1ccco1)C1CCS(=O)(=O)C1` (stereo not given)?
Rango dissoc inh: -7%; miR-21 reporter: -4%; GLA inh pH 4.5: -7; Rango-impB inh: 2.5%

What do the screens show for `CN(C)CCCN1C(=O)CSC1c1ccccc1` (stereo not given)?
Rango dissoc inh: 12%; miR-21 reporter: -1%; GLA inh pH 4.5: 2; Rango-impB inh: -0.6%

Results for C/C(CC(=O)N1CCN(C=O)CC1)=N\NC(=O)c1ccc([N+](=O)[O-])cc1 ?
Rango dissoc inh: 18%; miR-21 reporter: -23%; GLA inh pH 4.5: 0; Rango-impB inh: 3.6%

How did Cc1c(CC(=O)N[C@@H](C)C(=O)O)c(=O)oc2c(C)c3occ(-c4ccccc4)c3cc12 do in these assays?
Rango dissoc inh: inconclusive; miR-21 reporter: -5%; Rango-impB inh: 3.9%

What do the screens show for `CCOC(=O)[C@H]1[C@H]2COc3ccc(Cl)cc3[C@@H]2N2C(=O)[C@@H](C)NC(=O)[C@@]12C`?
Rango dissoc inh: 2%; Rango-impB inh: 0.6%

Results for COc1ncccc1C(=O)N1CCCC(N2CCN(c3cccc(Cl)c3)CC2)C1 (stereo not given) ?
Rango dissoc inh: 13%; miR-21 reporter: 9%; Rango-impB inh: -3.7%

How did Cn1cc(C(=O)Nc2ccc(Cl)c(Cl)c2)cn1 do in these assays?
Rango dissoc inh: -4%; Rango-impB inh: 0.1%

Results for NCCCC[C@H]1CNC(=O)C(=O)N1CCCCC1CCCCC1 ?
Rango dissoc inh: 17%; miR-21 reporter: 0%; GLA inh pH 4.5: 3; Rango-impB inh: -2.2%

Molecules shown so far with an aryl thioether with sulfur outside any ring, in the order listed:
What do the screens show for `CSc1ncccc1C(=O)OCC(=O)NCc1ccc2c(c1)OCO2`?
Rango dissoc inh: 12%; miR-21 reporter: -2%; GLA inh pH 4.5: 3; Rango-impB inh: 3.2%

How did Cc1ccc(-c2nc(SCC(=O)NCC3CCCO3)c(-c3ccc(C)cc3)[nH]2)cc1 (stereo not given) do in these assays?
Rango dissoc inh: -19%; miR-21 reporter: -2%&-7%; GLA inh pH 4.5: 8; Rango-impB inh: 2.0%

Next section:
What do the screens show for `COc1ccc(Cc2nc3ccc(C(=O)NCc4cc(C)no4)cc3o2)cc1`?
Rango dissoc inh: -5%; miR-21 reporter: -46%; Rango-impB inh: 0.3%

Results for Cc1cccc([C@@H]2[C@@H]3C(=O)N(Cc4ccccc4)C(=O)[C@@H]3[C@]3(C)C(=O)N(c4ccc(Br)cc4)C(=O)N23)c1 ?
Rango dissoc inh: 2%; miR-21 reporter: 6%; Rango-impB inh: -0.2%

Results for CC(Oc1ccccc1F)C(=O)NCCN1CCCCC1 (stereo not given) ?
Rango dissoc inh: 8%; miR-21 reporter: 1%; GLA inh pH 4.5: -5; Rango-impB inh: -3.4%

What do the screens show for `Cn1cnc([N+](=O)[O-])c1SCC(O)CN1CCCCC1` (stereo not given)?
Rango dissoc inh: 0%; miR-21 reporter: -1%; GLA inh pH 4.5: -7; Rango-impB inh: 1.4%

How did O=C(Nc1ccc(N2CCN(C(=O)c3ccco3)CC2)cc1)C(c1ccccc1)c1ccccc1 do in these assays?
Rango dissoc inh: 11%; miR-21 reporter: 4%; GLA inh pH 4.5: 4; Rango-impB inh: -1.1%

How did CCOC(=O)C1Cn2c(nc3c(c2=O)C(C)(C)Cc2ccccc2-3)S1 (stereo not given) do in these assays?
Rango dissoc inh: 22%; miR-21 reporter: -11%; GLA inh pH 4.5: -4; Rango-impB inh: 0.2%

What do the screens show for `Cc1ccc(S(=O)(=O)CCC(=O)N(C)c2c(N)n(Cc3ccccc3)c(=O)[nH]c2=O)cc1`?
Rango dissoc inh: 24%; Rango-impB inh: 2.5%

Results for N=c1c2c3c(sc2ncn1CCCN1CCOCC1)CCCCC3 ?
Rango dissoc inh: 1%; miR-21 reporter: -5%; GLA inh pH 4.5: -2; Rango-impB inh: 1.4%

What do the screens show for `CC(C)N1CCN(Cc2nc(-c3ccccc3)cs2)CC1CCO` (stereo not given)?
Rango dissoc inh: 1%; miR-21 reporter: -4%; GLA inh pH 4.5: -2; Rango-impB inh: 1.3%

How did CCn1c(SCC(=O)N(C)C)nc2cc(S(=O)(=O)N3CCCCC3)ccc21 do in these assays?
Rango dissoc inh: 24%; Rango-impB inh: -3.5%

How did NS(=O)(=O)c1cccc(NS(=O)(=O)c2ccc(/C=C/C(=O)O)cc2)c1 do in these assays?
Rango dissoc inh: -7%; miR-21 reporter: -1%; GLA inh pH 4.5: 1; Rango-impB inh: 3.8%

What do the screens show for `CCOc1cc(NC(=O)c2ccco2)c(OCC)cc1NC(=O)c1cc(OC)c(OC)c(OC)c1`?
Rango dissoc inh: inconclusive; miR-21 reporter: -4%; GLA inh pH 4.5: 9; Rango-impB inh: -1.4%

How did Nc1ccccc1OCCOCCOc1ccccc1N do in these assays?
Rango dissoc inh: 2%; miR-21 reporter: -6%; GLA inh pH 4.5: 1; Rango-impB inh: -0.2%

How did Cc1ccc(S(=O)(=O)N2CCC(C(=O)NCCCN3CCCC3=O)CC2)cc1C do in these assays?
Rango dissoc inh: 1%; miR-21 reporter: -3%; Rango-impB inh: 6.0%

Results for O=S(=O)(Nc1ccc(-n2cccc2)cc1)c1ccc(Cl)c(Cl)c1 ?
Rango dissoc inh: -22%; miR-21 reporter: -5%; GLA inh pH 4.5: -6; Rango-impB inh: 5.7%

How did CC(/C=N\Nc1nnc2c(n1)[nH]c1c(C)cccc12)=C\c1ccco1 do in these assays?
Rango dissoc inh: 3%; miR-21 reporter: -11%; GLA inh pH 4.5: -1; Rango-impB inh: 5.6%

Results for COc1ccc(C(O)P(=O)(OC(C)C)OC(C)C)cc1OC (stereo not given) ?
Rango dissoc inh: -10%; miR-21 reporter: -2%; GLA inh pH 4.5: 8; Rango-impB inh: -4.5%

What do the screens show for `CCOC(=O)C1(Cc2ccc(Cl)cc2)CCN(C(=O)CCc2ccncc2)CC1`?
Rango dissoc inh: 5%; miR-21 reporter: 4%; GLA inh pH 4.5: -5; Rango-impB inh: -0.7%

What do the screens show for `O=C(O)C1CCCN1C(=O)C12CC3CC(CC(C3)C1)C2` (stereo not given)?
Rango dissoc inh: -7%; miR-21 reporter: 1%; Rango-impB inh: -2.2%

How did COc1ccc(NC(=O)CN2C(=O)CSc3ncccc32)cc1 do in these assays?
Rango dissoc inh: -16%; miR-21 reporter: -5%; Rango-impB inh: -0.8%

Pulled one by one from the list above, 3 records:
How did CCn1c(SCC(=O)N(C)C)nc2cc(S(=O)(=O)N3CCCCC3)ccc21 do in these assays?
Rango dissoc inh: 24%; Rango-impB inh: -3.5%

Results for N=c1c2c3c(sc2ncn1CCCN1CCOCC1)CCCCC3 ?
Rango dissoc inh: 1%; miR-21 reporter: -5%; GLA inh pH 4.5: -2; Rango-impB inh: 1.4%

What do the screens show for `CCOC(=O)C1(Cc2ccc(Cl)cc2)CCN(C(=O)CCc2ccncc2)CC1`?
Rango dissoc inh: 5%; miR-21 reporter: 4%; GLA inh pH 4.5: -5; Rango-impB inh: -0.7%

(next part)
How did Nc1ncnc2c1ncn2[C@@H]1O[C@H](CNC(=O)[C@@H](N)CO)[C@@H](O)[C@H]1O do in these assays?
Rango dissoc inh: -5%; Rango-impB inh: -1.5%

How did COc1cccc(NC(=O)Nc2cccc(C)n2)c1 do in these assays?
Rango dissoc inh: 14%; miR-21 reporter: -39%; Rango-impB inh: -4.4%

What do the screens show for `CN(C(=O)CSc1nnc(-c2ccc(OC(F)F)cc2)n1N)C1CCS(=O)(=O)C1` (stereo not given)?
Rango dissoc inh: 19%; Rango-impB inh: 3.1%

How did Cc1cc(C(=O)CN2C(=O)NC3(CCCc4ccccc43)C2=O)c(C)n1Cc1ccco1 (stereo not given) do in these assays?
miR-21 reporter: -10%; GLA inh pH 4.5: -15

How did Cc1ccc(S(=O)(=O)N(C)Cc2ccc(C(=O)NN=C(CC(C)C)CC(C)C)cc2)cc1 do in these assays?
Rango dissoc inh: -9%; miR-21 reporter: 1%; GLA inh pH 4.5: -9; Rango-impB inh: -0.1%

How did C/C(CC(=O)Nc1cc(C)ccn1)=N\NC(=O)C(=O)Nc1cccc(C)c1 do in these assays?
Rango dissoc inh: -17%; miR-21 reporter: -52%; GLA inh pH 4.5: -1; Rango-impB inh: -4.3%

How did O=C(NC1CCCCC1)C(c1cccs1)N(Cc1cccs1)C(=O)c1cccs1 (stereo not given) do in these assays?
Rango dissoc inh: 9%; miR-21 reporter: -3%; GLA inh pH 4.5: 2; Rango-impB inh: -0.3%

How did O=C(NCc1cccc(C(F)(F)F)c1)C1CC(c2ccccc2F)=NO1 (stereo not given) do in these assays?
Rango dissoc inh: -3%; Rango-impB inh: -2.7%

Results for NS(=O)(=O)c1ccc(CCNC(=O)C(=O)Nc2cc3c4c(c2)CC(=O)N4CCC3)cc1 ?
Rango dissoc inh: 3%; Rango-impB inh: -2.3%

What do the screens show for `CCOC(=O)C(CC)n1cnc2c(nnn2-c2ccc(OC)cc2)c1=O` (stereo not given)?
Rango dissoc inh: 0%; miR-21 reporter: -2%; GLA inh pH 4.5: 5; Rango-impB inh: 2.0%

Results for O=C(c1ccc2ccccc2c1)N1CCN(c2ccc(O)cc2)CC1 ?
Rango dissoc inh: -2%; miR-21 reporter: -14%; GLA inh pH 4.5: -23; Rango-impB inh: -3.1%

How did COc1cc(Br)c(S(=O)(=O)Nc2c(C)n(C)n(-c3ccccc3)c2=O)cc1OC do in these assays?
Rango dissoc inh: 2%; miR-21 reporter: -5%; GLA inh pH 4.5: -4; Rango-impB inh: 0.1%

Only part of the results is shown; the hit share may differ from the screen's.
